Resorufin autofl – compound fluoresces in the resorufin spectral region. AID 588. max dye-equivalent concentration, M. actives 0.04% (n = 59,000). Compound fluorescence, resorufin region 547/598 nm, buffer; active compounds read high; active = above 10 nM dye equivalent; inconclusive = 1 to 10 nM; inactive = 1 nM or less; a few of its hits are not listed in these tables; further: highest value over a series up to 38 µM
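Read-out: intrinsic compound fluorescence at ex 547/em 598 nm after 15 min at RT in pH 8.0 Tris (100 mM). Values expressed as resorufin-equivalent concentration from per-plate standard series.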
TSHR agonist – activates the human thyroid stimulating hormone receptor; P16473; HEK293-CNG-TSHR cells (CNG channel as cAMP sensor), membrane potential dye, cAMP; Potency, µM (titrated, usually from 57.1 µM), for inactives: at the highest dose activation, actives largely listed as activators; actives 0.48% (n = 73,000); AID 926; active = well fitted activation curve of enough size with the parental cells flat; inconclusive = any curve in the parental cells; inactive = parental cells flat and receptor cells flat or falling; further: potency means the concentration at half of the fitted maximal effect; % of control where 0% means no effect; weak receptor curves with flat parental cells got no call and are not listed
Target sequence (P16473 whole entry, looked up): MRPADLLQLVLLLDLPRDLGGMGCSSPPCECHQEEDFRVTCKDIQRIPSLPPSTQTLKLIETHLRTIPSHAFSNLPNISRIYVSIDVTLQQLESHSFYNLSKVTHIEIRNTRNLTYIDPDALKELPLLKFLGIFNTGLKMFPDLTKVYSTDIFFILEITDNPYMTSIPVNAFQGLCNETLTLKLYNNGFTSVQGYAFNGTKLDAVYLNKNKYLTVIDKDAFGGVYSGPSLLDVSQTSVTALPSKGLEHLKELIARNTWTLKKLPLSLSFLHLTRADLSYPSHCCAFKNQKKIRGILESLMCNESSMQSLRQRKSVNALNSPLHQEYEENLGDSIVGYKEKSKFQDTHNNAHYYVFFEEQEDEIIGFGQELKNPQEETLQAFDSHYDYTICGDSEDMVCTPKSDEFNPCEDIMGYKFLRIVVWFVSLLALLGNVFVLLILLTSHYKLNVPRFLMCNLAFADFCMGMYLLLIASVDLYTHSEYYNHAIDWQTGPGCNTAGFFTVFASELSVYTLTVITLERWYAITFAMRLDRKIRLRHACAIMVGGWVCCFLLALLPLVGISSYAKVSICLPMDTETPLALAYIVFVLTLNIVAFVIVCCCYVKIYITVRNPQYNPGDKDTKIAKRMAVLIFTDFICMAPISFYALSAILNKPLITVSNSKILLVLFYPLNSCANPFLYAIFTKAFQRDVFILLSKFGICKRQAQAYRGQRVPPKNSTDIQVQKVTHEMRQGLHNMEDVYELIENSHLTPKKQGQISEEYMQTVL
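cAMP rise detected as CNG-channel membrane depolarization by fluorescent dye (emission 590 nm), 30 min after compound, following 60 min dye loading containing 100 uM RO 20-1724 at room temperature. Cells: TSHR/CNG HEK 293, with parental CNG HEK 293 as control.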
AID923 – qHTS Assay for Allosteric/Competitive Inhibitors of Caspase-1: Spectroscopic Profiling in AFC Spectral Region; compound fluorescence, AFC spectral region (405/520 nm); almost no hit is shown here; Potency, µM (series often up to 57.5 µM), for inactives: at the top dose fluorescence increase, usual class: activators; actives 1.1% (n = 75,000); AID 923, 2007; active means well fitted activation curve with a large enough effect; inconclusive means small, poorly fitted or top-dose-only effect;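 further: potency means the concentration at half of the fitted maximal effect; 0% is about no effect; scaled to a free AFC standard on each plate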
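Compound autofluorescence profiled at 405 nm ex/520 nm em during kinetic caspase 1 run (50 nM enzyme, 5 uM Ac-WEHD-AFC, HEPES pH 7.5, 10 mM DTT). Titration up to 57 uM; baseline from regression intercept, normalized to AFC standard curve.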
A488 fluor – compound fluoresces in the A488 spectral region; compound autofluorescence, A488 spectral region, dye equivalency; active compounds read high; max dye equivalency, M; actives 0.1% (n = 59,000); active = above 10 nM dye equivalent; inconclusive = 1 to 10 nM; inactive = 1 nM or less; about half of its hits are not listed in these tables;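 further: highest value over a series up to 38 µM; compound alone in buffer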
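Spectroscopic profiling in the A488 region: compounds in pH 8.0 Tris (100 mM), 15 min RT, CCD imaging with 480 nm excitation and 540 nm emission; responses normalized against A488 dye standards.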
A647 autofl – compound fluoresces in the A647 spectral region; Compound fluorescence, A647 channel (570/671 nm), Tris buffer; max dye-equivalent concentration, M; 59,000 tested, under 10 active; active means above 1 µM dye equivalent; inconclusive means 0.1 to 1 µM; inactive means 0.1 µM or less;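 further: values scaled relative to a standard on each plate; highest value over a series up to 38 µM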
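Spectral profiling of library compounds in pH 8.0 Tris: 15 min room-temperature incubation, single ex/em pair (570/671 nm), response normalized to Alexa 647 equivalents.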
Starred values were filed as active, the others as inactive; i = inactive; ? = inconclusive; . = no result given; & = joins results of further samples; [ ] = dose if it differs, or a comment. Some of the compounds tested (hit frequency here may not be typical).

SMILES	Resorufin autofl	TSHR agonist	AID923	A488 fluor	A647 autofl
C#CCCCO/N=C1/C[C@@H](O)[C@@H](O)[C@@H]2[C@@H]3C(=O)N(C4CCCCC4)C(=O)[C@H]3CC[C@@H]12	.	-7%[11.4 µM]	0.1%[11.5 µM]	.	.
O=c1[nH]c2ccccc2n1C1=CCCC1	i	7%	0.9%	i	7.4e-09
O=C1O/C(=C\Br)CC[C@@H]1c1cccc2ccccc12	i	11%	-3.8%	i	6.4e-08
Cc1cccc(-n2ncc3c(Nc4c(C)n(C)n(-c5ccccc5)c4=O)ncnc32)c1	i	?	-0.6%	i	1e-09
Cc1ccnc(N2CCC(C(=O)NCc3ccc4c(c3)OCO4)CC2)n1	i	-12%	-1.4%	i	1e-09
Cc1noc(NS(=O)(=O)c2ccc(NC(=O)COc3ccccc3)cc2)c1C	i	.	.	i	3.4e-09
CCOC(=O)c1[nH]c(C)c(C(=O)Nc2ccccc2F)c1C	i	-3%[11.4 µM]	-1.6%	i	2.9e-09
CN1CCN(CCC(=O)Nc2ccc(F)c(F)c2)CC1	.	43%	3.1%	.	.
COc1cccc(-c2nnc3sc(C4CCCCC4)nn23)c1	i	.	.	i	9.1e-09
O=C(NCc1ccco1)c1nc(-c2ccccc2)n(-c2ccccc2)n1	i	4%	0.5%	i	1e-09
COc1ccc(CC(=O)Nc2cccc(C(=O)O)c2C)cc1	i	-1%	4.3%	i	1.3e-09
Nc1ccccc1S(=O)(=O)c1ccccc1N	i	-3%	2.0%	i	1e-09
Cc1cc(C(=O)OCC(=O)c2c(N)n(C)c(=O)n(C)c2=O)c(C)n1-c1ccccc1	i	3%	-0.4%	i	4.2e-09
c1ccc(-c2nc3ccccc3nc2-c2ccccn2)nc1	i	2%	-1.1%	i	3e-08
CCN1CCCC1CNC(=O)c1ccc2c(=O)n(CCOC)c(=O)[nH]c2c1 (stereo not drawn)	i	2%[11.4 µM]	-0.2%	i	2.7e-09
O=C(NCCN1CCN(c2ccccc2)CC1)C1CCCN(S(=O)(=O)c2cnc[nH]2)C1 (stereo not drawn)	.	-13%	2.0%	.	.
FC(F)(F)c1cc(-c2cccs2)nc(NCc2ccco2)n1	i	12%	4.6%	i	2.2e-08
O=C1c2ccccc2C(=O)N1Cc1nc2ccccc2c(=O)n1Cc1ccco1	i	?	-1.7%	i	1e-09
CCOC(=O)N1CCN(C(=O)CN(Cc2ccccc2)S(=O)(=O)c2ccc(OC)c(C)c2)CC1	i	-9%	-1.1%	i	3.7e-09
Cc1cc(C)n2nc(SCC#N)nc2n1	.	-5%	1.0%	.	.
CC1CC2(CC(C)(C(=O)CSc3n[nH]c(-c4ccccc4Cl)n3)OC2=O)C(=O)O1 (stereo not drawn)	i	8%	-0.8%	i	1.9e-08
CC1CCC(C(=O)NC(C(=O)NCCN2CCC(C)CC2)C(C)C)CC1 (stereo not drawn)	i	20%	1.8%	i	2.6e-08
O=C(C1CCCO1)N1CCc2ccccc21 (stereo not drawn)	i	9%	-3.1%	i	1.5e-09
CCOC(=O)[C@]1(C(/C=C/c2ccco2)NC(=O)OC)CCCC1=O (stereo partly drawn)	.	14%[11.4 µM]	1.9%[11.5 µM]	.	.

A run of entries from further up, as a working copy:
SMILES	Resorufin autofl	TSHR agonist	AID923	A488 fluor	A647 autofl
CC1CC2(CC(C)(C(=O)CSc3n[nH]c(-c4ccccc4Cl)n3)OC2=O)C(=O)O1 (stereo not drawn)	i	8%	-0.8%	i	1.9e-08
CC1CCC(C(=O)NC(C(=O)NCCN2CCC(C)CC2)C(C)C)CC1 (stereo not drawn)	i	20%	1.8%	i	2.6e-08
O=C(C1CCCO1)N1CCc2ccccc21 (stereo not drawn)	i	9%	-3.1%	i	1.5e-09
CCOC(=O)[C@]1(C(/C=C/c2ccco2)NC(=O)OC)CCCC1=O (stereo partly drawn)	.	14%[11.4 µM]	1.9%[11.5 µM]	.	.

Compound profiles, as listed above. Order of screens: Resorufin autofl, TSHR agonist, AID923, A488 fluor, A647 autofl
CCN1CCCC1CNC(=O)c1ccc2c(=O)n(CCOC)c(=O)[nH]c2c1 (stereo not drawn) in the list: i, 2%[11.4 µM], -0.2%, i, 2.7e-09
C#CCCCO/N=C1/C[C@@H](O)[C@@H](O)[C@@H]2[C@@H]3C(=O)N(C4CCCCC4)C(=O)[C@H]3CC[C@@H]12 in the list: ., -7%[11.4 µM], 0.1%[11.5 µM], ., .

Carrying on.
SMILES	Resorufin autofl	TSHR agonist	AID923	A488 fluor	A647 autofl
Cc1ccccc1N1C(=O)c2ccccc2C1Nc1cccnc1 (stereo not drawn)	.	-2%	-2.5%	.	.
CC(=O)Nc1cc2c(cc1NC(=O)Cn1nc(-c3ccccc3F)ccc1=O)OCCO2	i	-1%	2.0%	i	1.1e-08
CC(=O)Nc1ccc(-c2nn[nH]n2)cc1Cl	i	12%	-0.9%	i	1e-09
Cc1nnn(C23CC4CC(CC(C4)C2)C3)n1	i	2%	-0.4%	i	1e-09
O=C(O)c1ccccc1CN1CCC[C@@H](C(=O)O)C1	i	-2%[11.4 µM]	-1.0%[11.5 µM]	i	2.7e-08
CC(Oc1ccccc1Br)C(=O)N1CCc2ccccc21 (stereo not drawn)	i	?	0.6%	i	8.7e-09
O=C(O)c1cnn2c1NC(c1cccs1)CC2C(F)(F)F (stereo not drawn)	.	2%	-0.1%	.	.
COCCNC(=O)CS(=O)Cc1nc(-c2ccc(Cl)cc2)oc1C (stereo not drawn)	.	5%	0.0%	.	.
O=S(=O)(c1ccccc1)n1ccc2ccccc21	.	?	2.0%	.	.
CCOC(=O)COc1ccc(S(=O)(=O)NCCC2=CCCCC2)cc1	i	.	0.1%	i	4e-08
O=C(NCc1ccco1)C(Cc1ccccc1)NS(=O)(=O)c1cccc2nsnc12 (stereo not drawn)	i	3%	-0.6%	i	1e-09
COc1ccc(-n2nnc3c(=O)n(CC(=O)N4CCCc5ccccc54)cnc32)cc1	.	-1%[11.4 µM]	3.3%	.	.
Cc1cccc(Nc2ncnc3nc[nH]c23)c1	.	?	0.5%	.	.
Cc1ccccc1S(=O)(=O)Cc1ccc(C(=O)NCCCN2CCN(C)CC2)o1	i	7%	-1.4%	i	4.7e-09
Cc1ccc(N(C(C)C(=O)N2CCC(C)CC2)S(C)(=O)=O)cc1C (stereo not drawn)	i	-1%	-0.6%	i	2.5e-08
O=C(CCNS(=O)(=O)c1ccc2c(c1)CCC(=O)N2)NCc1ccc2c(c1)OCO2	i	-3%	-0.3%	i	1.3e-09
COc1ccc(-n2c(=O)cnc3cnc(Nc4ccccc4)nc32)cc1	i	-2%	1.3%	i	1.9e-08
O=C(C1CCN(S(=O)(=O)c2cccc3cccnc23)CC1)N1CCc2ccccc21	i	18%	2.5%	i	6.3e-09
O=C(O)C1CCCCC1C(=O)NCCCc1ccccc1 (stereo not drawn)	i	0%	-0.2%	i	1e-09
CC(C)[C@@H](OCc1ccccc1)[C@H](C)/C=N\O[C@@H](C)c1cn([C@H](CO)Cc2ccccc2)nn1	.	0%&3%[11.4 µM]	-1.4%&1.0%[11.5 µM]	.	.
O=C(CN1CCN(c2ccc(F)cc2)CC1)Nc1cccc(C(F)(F)F)c1	i	-10%	0.0%	i	4.5e-08
CCN1CCc2c(C#N)c(NCc3ccccc3)nc(NCCO)c2C1	i	.	.	i	2.6e-09
COC(=O)N1CC(c2ccccc2)CC1=O (stereo not drawn)	i	1%	-0.4%	i	2.1e-09
Cc1[nH]c(N)nc(=S)c1CCC(=O)O	i	-2%[11.4 µM]	-5.5%[11.5 µM]	i	1e-09
Nc1nc(SCC(=O)c2ccc(Oc3ccccc3)cc2)n[nH]1	i	2%	1.2%	i	4e-08
C=C1CCO[C@@]2([C@H](O)[C@@](C)(O)CO)NC(=O)[C@]1(O)NC2=O	i	?	1.4%[11.5 µM]	i	9e-09
Cc1nn(C)c(C)c1S(=O)(=O)N(CC(=O)Nc1nccs1)c1ccc(C(C)C)cc1	.	7.9µM*	2.0%	.	.
CCOc1cc2[nH]c(=O)n(CC3CCC(C(=O)NCCCOC)CC3)c(=O)c2cc1OCC (stereo not drawn)	i	-4%	1.1%	i	3e-09
O=C(c1cnccn1)N(c1ccccc1)C1(C(=O)NC2CCCC2)CCCCC1	i	9%	0.8%	i	1.2e-08
Cc1cccc(Cn2c(=O)c3c(nc4n3CCN4Cc3ccco3)n(C)c2=O)c1	i	?	-1.0%	i	2.6e-08
CCc1nc(SCCO)c2oc3ccccc3c2n1	i	-14%	-1.7%	i	2e-08
Cc1c(C(=O)N2CCN(c3ccc(F)cc3)CC2)sc2nc(-c3ccccc3)cn12	i	21%	0.9%	i	1e-09
Cc1ccccc1NC(=O)c1ccc(S(=O)(=O)N(C)C)cc1	.	9%	2.7%	.	.
COCCn1c(SCC(=O)Nc2cccc(OC)c2)nnc1-c1ccc(Cl)cc1	i	.	-0.7%	i	2.7e-08
C[C@@]1(O)C(O)[C@@H](CO)O[C@H]1n1cnc2c(NC3CCCC3)nc(Cl)nc21 (stereo partly drawn)	.	0%	-2.8%	.	.
Cc1cc(OCC(=O)NCCO)cc(C)c1Cl	.	5%	-0.8%	.	.
CCOc1ccccc1NC(=O)CC1NCCNC1=O (stereo not drawn)	i	1%	-3.3%	i	3.7e-08
O=C(Cn1cnc2ccccc2c1=O)N1CCN(Cc2ccccc2)CC1	i	-12%	1.8%	i	9.6e-09
c1ccc2c(c1)nc1n2CCN1CCNC1CCCCC1	.	-3%	3.8%	.	.
C=CCC1(C)OC=Cc2nc3cc(Cl)c(Cl)cc3nc21 (stereo not drawn)	.	15%[11.4 µM]	1.8%[11.5 µM]	.	.
S=C(N=Nc1ccccc1)NNc1ccccc1	i	.	.	i	1.5e-08
CCOC(=O)c1ccc(N2CSC3=C(C#N)C(c4cccs4)CC(=O)N3C2)cc1 (stereo not drawn)	.	10%	1.5%	.	.
COC(=O)C1=C(C)N(C)C(C)=C(C(=O)OC)C1c1ccncc1	i	7%	0.1%	i	1e-09
O=C(c1csnn1)N1CCC2(CC1)CCN(c1ncccn1)CC2	i	4%	0.5%	i	9.6e-09
CC(=O)c1ccc(S(=O)(=O)N(Cc2cc3cc4c(cc3[nH]c2=O)OCCO4)CC2CCCO2)cc1 (stereo not drawn)	i	2%	0.4%	i	1.1e-08
CC(C)c1cc(C(=O)Nc2cccc(Cl)c2)no1	i	-4%	-0.9%	i	1.5e-08
Cc1ccc2nc(-c3cccc(S(=O)(=O)N(C)C)c3)cn2c1	i	?	2.9%	i	1e-09
CC(C)=C1C(=O)C(c2ccccc2)=C2CN3C(=O)N(CCc4ccccc4)C(=O)[C@]3(Cc3ccccc3)[C@H]21	.	6%	-0.9%	.	.
COc1ccc(CNCC(=O)Nc2cc(C)nn2-c2nc(C)cc(C)n2)cc1OC	i	3%	0.6%	i	5.8e-09
CC(=O)Oc1ccc2c(C)cc(=O)[nH]c2c1	i	.	.	i	1e-09
CC(=O)NCc1cn2c(C)csc2n1	.	0%	1.1%	.	.
Cc1nc(N2CCCC2C(=O)O)c2oc3ccccc3c2n1 (stereo not drawn)	i	6%	3.9%	i	1.5e-08
O=C(c1cc(-c2cccs2)on1)N1CCN(c2ccc(F)cc2)CC1	i	?	0.7%	i	1.8e-08
COc1ccc(-c2nnc(SCc3ccccc3F)o2)cc1OC	i	?	0.0%	i	1e-09
COC(=O)c1[nH]c2cccc(OC)c2c1NC(=O)CCN1CCN(c2ccccc2F)CC1	i	9%	-0.5%	i	1.1e-09
Cc1ccc(OCCCC(=O)Nc2ccc(S(=O)(=O)Nc3cc(C)on3)cc2)cc1	i	-6%	0.6%	i	6.1e-08
COc1cccc(Nc2nc(=O)[nH]nc2C)c1	i	-12%	-0.8%	i	1.7e-08
COc1ccc(N2CCC(CNC(=O)Nc3ccc(OC)cc3OC)C2)cc1 (stereo not drawn)	i	-11%	0.6%	i	1.3e-08
COCCn1c(-c2cc(OC)c(OC)c(OC)c2)nc2oc3ccccc3c(=O)c2c1=O	i	-15%	-1.6%	i	1e-09

High-throughput results deposited in PubChem by National Center for Advancing Translational Sciences (NCATS).
